AID504770 – growth inhibitors of E. coli YBA685 in a screen for V. cholerae RctB (chromosome II replication) inhibitors | E. coli YBA685 rctB-dependent plasmid, OD600 growth, 3 h; hits give low values | z-score (concentration not given with the values) | 130,000 compounds, 0.27% hits | AID 504770;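 active = z-score under -2 on both plates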;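 also: wells of about 30 µL received 100 nL stock; score is relative to mean and SD of the test wells; the first replicate is given; strong numbers were not always called active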
CapD inh – inhibitors of Bacillus anthracis CapD enzyme; z-score (test concentration not listed); 140,000 compounds, 0.23% hits; purified CapD enzyme, fluorescence intensity read-out; hits give low values; some hits fall short of the stated cut; AID 492967;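 active = z-score under -4 in either of two replicates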;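 also: stock transfer was 100 nL into about 40 µL; score is relative to mean and spread of the plate; one replicate is shown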
An asterisk follows results filed as active; & = joins results of further samples.

Results for O=C(Nc1c[nH]c(=O)[nH]c1=O)c1cccc(C(=O)Nc2c[nH]c(=O)[nH]c2=O)c1 ?
AID504770: 1.2

What do the screens show for `COc1ccc(C(=O)N2CCC(O)(c3ccc(Cl)c(C(F)(F)F)c3)CC2)cc1`?
CapD inh: -0.89

Results for CCSC(SCC)C(=O)NNC(=S)Nc1cccc(C(F)(F)F)c1 ?
CapD inh: -0.64

How did CC1=CC2=C(C1=O)C(C(C)C)C(C#N)=C(N)S2 (centres undefined) do in these assays?
AID504770: 2.5; CapD inh: 0.28

Results for CCN(Cc1ccccc1)C(=O)Cn1c(=O)n(NC(=O)c2ccccc2)c(=O)c2sccc21 ?
AID504770: -0.15; CapD inh: 0.08

How did NC(N)=NC(N)=Nc1ccc(Cl)cc1 do in these assays?
AID504770: -1.6; CapD inh: 0.58&-0.39&0.14

Results for CCN(CC)S(=O)(=O)c1ccc(N=Cc2c(O)n(-c3ccccc3)c(=O)[nH]c2=O)c(C)c1 ?
AID504770: -0.7; CapD inh: 3.7

Results for Cc1ccc(C(=O)[C@@H]2[C@@H](c3ccccc3Cl)C(C#N)(C#N)[C@H]3C=Cc4ccccc4N23)cc1 ?
CapD inh: 6.9

What do the screens show for `O=c1oc2cccnc2n1CCS(=O)(=O)c1ccc(F)cc1`?
AID504770: -0.75; CapD inh: 89

What do the screens show for `Cc1ccc2[nH]cc(NC(=O)NCCN(C)C)c(=O)c2c1`?
AID504770: 0.05

What do the screens show for `N#CCc1ccc2cc(CC#N)ccc2c1`?
AID504770: 1.1; CapD inh: -0.47

Results for Cc1cccc(OCc2nc(-c3ccc(NC(=O)c4cccs4)cc3)no2)c1C ?
CapD inh: 1.7

What do the screens show for `COC(=O)C1=C(c2ccccc2)S/C(=C2/C(=S)C(C)(C)N(C(C)=O)c3c(C)cc(C)cc32)S1`?
CapD inh: -0.06

How did Cc1cccc(N(C(=O)Nc2ccc(Cl)cc2)C2=NCC(C)S2)n1 (centres undefined) do in these assays?
AID504770: 0.05; CapD inh: 0.12

Results for CC1=CCC2(CC1)COC(C(C)C)OC2 (centres undefined) ?
AID504770: -0.65

How did Nc1c(C(=O)Nc2ccc(F)cc2)sc2nc3c(c(-c4cccs4)c12)CCC3 do in these assays?
CapD inh: 0.24

How did Oc1c(Br)cc(Br)cc1C=NC1CC1 do in these assays?
AID504770: 0.4

Results for CN(Cc1cccs1)C(=O)[C@@H]1CCCN1C(=O)c1cccs1 ?
AID504770: -0.35

What do the screens show for `CC1CN(C(=O)CCC(=O)O)c2ccccc2O1` (centres undefined)?
AID504770: 0.3; CapD inh: 0.8

What do the screens show for `Cc1ccc(C(=O)Oc2ccc(C3Oc4ccccc4C4CC(c5ccc(Br)cc5)=NN43)cc2)cc1` (centres undefined)?
CapD inh: -0.22

Results for N#C/C(=C\c1ccco1)C(=O)Nc1ccccc1 ?
AID504770: -0.15; CapD inh: -1.9

What do the screens show for `O=[N+]([O-])/C=C/c1cc2c(cc1[N+](=O)[O-])OCO2`?
CapD inh: -2.6

How did CCOC(=O)/C=C1\SCC(=O)N1CC(O)CN1C(=O)CS/C1=C\C(=O)OCC do in these assays?
AID504770: -0.3

Results for O=C1CCCN1c1cccc2ccccc12 ?
AID504770: -0.1; CapD inh: 0.08

What do the screens show for `CC1CCc2c(nc3ncnn3c2NCCN(C)C)C1` (centres undefined)?
AID504770: -0.9

What do the screens show for `COC(=O)c1cccc(N=C(N)N=C(N)N)c1`?
AID504770: -0.45; CapD inh: 0.1

How did COc1ccc(Br)cc1CN1CCN(C(=O)Cc2ccccc2)CC1 do in these assays?
AID504770: -0.05

Results for Cc1oc(-c2ccc(Cl)cc2)nc1CS(=O)CC(=O)NC1CCCC1 (centres undefined) ?
AID504770: 0.35; CapD inh: -0.04

Results for CC(C)(C)CC(=O)N1CCN(c2cc(C(F)(F)F)ccn2)CC1 ?
AID504770: -0.7; CapD inh: 48

Results for Cc1ccc(S(=O)(=O)N2c3ccccc3C(C)(c3ccccc3)CC2(C)C)cc1 (centres undefined) ?
AID504770: 0.2; CapD inh: 0.33

How did CCSc1nc2sc3c(c2c(=O)n1-c1ccccc1)CCN(C)C3 do in these assays?
AID504770: 0.15; CapD inh: 17

What do the screens show for `O=C(O)CCC12CC3CC(CC(Cl)(C3)C1)C2`?
AID504770: -0.85; CapD inh: 0.71

How did O=C(CCc1ccccc1)NN1C(=O)CCC1=O do in these assays?
AID504770: -0.9; CapD inh: -0.13

Results for CSc1ncccc1C(=O)OC(C)C(N)=O (centres undefined) ?
AID504770: -0.05

Results for O=C(NNc1ccccc1)Nc1ccccc1F ?
AID504770: -1.2

How did Cc1c(C(=O)NCC2COc3ccccc3O2)sc2ncnc(N3CCCCC3C)c12 (centres undefined) do in these assays?
CapD inh: -0.075

Results for CC(=O)Nc1cc(Cl)ccc1N1CCOCC1 ?
AID504770: -0.5; CapD inh: 0.63

What do the screens show for `CCOC(=O)c1ccc(Nc2scc(C)[n+]2C)cc1`?
AID504770: 0.1; CapD inh: -0.55

Results for COC(=O)COc1ccc(Oc2cc(C)nc(SC)n2)nn1 ?
AID504770: 2.1; CapD inh: -0.71

How did CC1CCc2c(cnc3ncnn23)C1 (centres undefined) do in these assays?
AID504770: 1.8

How did CCn1cc(C(=O)O)c(=O)c2cnc(N3CCN(C(=S)Nc4ccccc4)CC3)nc21 do in these assays?
AID504770: -0.7; CapD inh: 1.5

Results for N#Cc1cc(-c2ccc(Cl)cc2)cn(Cc2cccc(C(F)(F)F)c2)c1=O ?
CapD inh: 3

How did CCCc1ccc(S(=O)(=O)NCc2ccccc2OC(F)(F)F)cc1 do in these assays?
CapD inh: 0.3

How did Cc1ccccc1Sc1ccccc1C(=O)O do in these assays?
AID504770: 0.55; CapD inh: -0.34

What do the screens show for `CCn1c(-c2ccc(F)cc2)csc1=Nc1ccc(C)cc1`?
AID504770: 0; CapD inh: -0.44

Copied from above (13 entries):
Results for Cc1ccc(S(=O)(=O)N2c3ccccc3C(C)(c3ccccc3)CC2(C)C)cc1 (centres undefined) ?
AID504770: 0.2; CapD inh: 0.33

How did CCSc1nc2sc3c(c2c(=O)n1-c1ccccc1)CCN(C)C3 do in these assays?
AID504770: 0.15; CapD inh: 17

What do the screens show for `O=C(O)CCC12CC3CC(CC(Cl)(C3)C1)C2`?
AID504770: -0.85; CapD inh: 0.71

How did O=C(CCc1ccccc1)NN1C(=O)CCC1=O do in these assays?
AID504770: -0.9; CapD inh: -0.13

Results for CSc1ncccc1C(=O)OC(C)C(N)=O (centres undefined) ?
AID504770: -0.05

Results for O=C(NNc1ccccc1)Nc1ccccc1F ?
AID504770: -1.2

How did Cc1c(C(=O)NCC2COc3ccccc3O2)sc2ncnc(N3CCCCC3C)c12 (centres undefined) do in these assays?
CapD inh: -0.075

Results for CC(=O)Nc1cc(Cl)ccc1N1CCOCC1 ?
AID504770: -0.5; CapD inh: 0.63

What do the screens show for `CCOC(=O)c1ccc(Nc2scc(C)[n+]2C)cc1`?
AID504770: 0.1; CapD inh: -0.55

Results for COC(=O)COc1ccc(Oc2cc(C)nc(SC)n2)nn1 ?
AID504770: 2.1; CapD inh: -0.71

How did CC1CCc2c(cnc3ncnn23)C1 (centres undefined) do in these assays?
AID504770: 1.8

How did CCn1cc(C(=O)O)c(=O)c2cnc(N3CCN(C(=S)Nc4ccccc4)CC3)nc21 do in these assays?
AID504770: -0.7; CapD inh: 1.5

Results for N#Cc1cc(-c2ccc(Cl)cc2)cn(Cc2cccc(C(F)(F)F)c2)c1=O ?
CapD inh: 3

Additional structures.
Results for O=C(NCC(c1ccco1)N1CCCCC1)c1ccccn1 (centres undefined) ?
AID504770: 0.3

Results for O=C(CSc1nc(NCC2CCCO2)c2ccccc2n1)N1CCN(c2ccccc2)CC1 (centres undefined) ?
CapD inh: 0.12

What do the screens show for `CC(=O)N1CCCc2ccc([N+](=O)[O-])cc21`?
CapD inh: -1.1

How did CC(=O)NC(C)c1nc2ccccc2n1Cc1ccccc1C (centres undefined) do in these assays?
AID504770: -0.8; CapD inh: 0.39

Results for CCC1=NN(C(=O)c2cccc(Cl)c2)C(O)(c2ccc(OC)cc2)C1 (centres undefined) ?
CapD inh: -1.2

How did Cn1c(=O)[nH]c(=O)c2[nH]c(CN3CCOCC3)nc21 do in these assays?
AID504770: -0.9

What do the screens show for `CC(=O)Nc1cccc(-c2cnc3ccccc3n2)c1`?
AID504770: 2; CapD inh: -0.85

How did O=C(c1cc2nc(-c3ccc(Cl)c(Cl)c3)cc(C(F)(F)F)n2n1)N1CCOCC1 do in these assays?
CapD inh: 0.72

Results for CC(C)(C)C(=O)/C=c1\s/c(=C\c2c(F)cccc2F)c(=O)n1CC(=O)NCc1ccco1 ?
AID504770: -0.8

How did Nc1c(C(=O)c2cccs2)sc2nsc(SCCN3CCCCC3)c12 do in these assays?
AID504770: 0.7; CapD inh: -0.61

What do the screens show for `O=C(OCc1cn2cc(Cl)ccc2n1)C1=NN(c2ccccc2)C(=O)CC1`?
AID504770: -0.65

What do the screens show for `Fc1ccc(-c2onc3ccc(-c4ccn(-c5cccc(F)c5)n4)cc23)cc1`?
CapD inh: -0.99

Results for CC1(N=Cc2ccccc2)CCS(=O)(=O)C1 (centres undefined) ?
AID504770: -0.25

What do the screens show for `Cc1ccc(CN2CCN(C(=O)C3CC=CCC3C(=O)O)CC2)cc1` (centres undefined)?
AID504770: 1.9; CapD inh: 0.005

Results for Cc1ccc(-c2csc(=Nc3ccc(F)cc3)n2CCc2ccc(S(N)(=O)=O)cc2)cc1C ?
CapD inh: -0.36

Results for O=C(CNC(=O)c1ccc2c(c1)OCO2)Nc1cccnc1 ?
AID504770: 0.25

What do the screens show for `Cc1nc(N2CCCCC2)c2c(C)c(C(=O)N3CCC4(CC3)OCCO4)sc2n1`?
CapD inh: -0.51

Results for O=C(N/N=C/c1ccc(N2CCCCC2)cc1)c1cccnc1 ?
AID504770: 0.3

How did Cc1ccc(C(=O)c2c(C)ccc3ccccc23)cc1C do in these assays?
CapD inh: -0.57

Results for Cc1cc2c(cc1C)C(=O)C(N1CCOCC1)=C(c1ccccc1)C2=O ?
AID504770: 0

Results for N#Cc1nc(COc2cccc(Cl)c2)oc1N1CCCC1 ?
AID504770: -0.8; CapD inh: 3.1

What do the screens show for `CCOC(=O)C1=C(N)OC2=C(C(=O)CC(c3ccccc3)C2)C1c1cccc(Cl)c1` (centres undefined)?
CapD inh: -0.23

How did [O-][n+]1ccccc1SC1=COCCC1 do in these assays?
AID504770: -0.85

How did O=C(N/N=C/c1ccc2c(c1)OCCO2)c1ccncc1 do in these assays?
AID504770: -0.2

Results for O=C(C1Sc2nnc(-c3ccccc3)n2NC1c1ccccc1)N1CCCCC1 (centres undefined) ?
AID504770: 1.4; CapD inh: -0.75

Results for C=CCN(C(=O)c1ccc(C)s1)c1nc(-c2ccc(S(C)(=O)=O)cc2)cs1 ?
AID504770: 0

Results for Cc1cc(NC(=O)CNCC2CCCCC2)no1 ?
AID504770: 1

Results for c1ccc(Cn2nnc3c(Sc4nnc(-c5ccncc5)o4)ncnc32)cc1 ?
AID504770: -0.25; CapD inh: -1.3

Results for O=C(CC1Sc2ccccc2NC1=O)N/N=C/c1ccnc2ccccc12 (centres undefined) ?
CapD inh: 5.6

How did CC1CN(C(=O)C2CCC2)CC(C)O1 (centres undefined) do in these assays?
AID504770: 0.75; CapD inh: -0.34

What do the screens show for `O=C1CCCN1CCC12CC3CC(CC(C3)C1)C2`?
AID504770: -0.7; CapD inh: -0.005

Results for CC(C)c1cc[nH]c1-c1ccccc1 ?
AID504770: -0.5; CapD inh: 1.1

What do the screens show for `CCOC(=O)c1cnc2ccccc2c1Nc1ccccc1CC`?
CapD inh: -0.49

What do the screens show for `Cc1sc2c(c1C)C(=O)/C(=C\Nc1ncccn1)S(=O)(=O)N2C`?
AID504770: 0.1; CapD inh: 0.51

Results for O=c1c2ccccc2nc2n1C(CSc1cccc(Cl)c1)CS2 (centres undefined) ?
CapD inh: 0.45

How did O=C1CSCC(=O)N1c1ccccn1 do in these assays?
AID504770: -0.5; CapD inh: 0.43

What do the screens show for `O=S(=O)(c1ccc(Cl)c(Cl)c1)N1CCN(c2ccc(C(F)(F)F)cn2)CC1`?
CapD inh: 0.12

What do the screens show for `COc1cc(C2C3=C(CC(C)(C)CC3=O)Nc3[nH]c(=O)[nH]c(=O)c32)cc(OC)c1OC` (centres undefined)?
AID504770: -0.6; CapD inh: -0.07

What do the screens show for `CC1(C)CC(=O)C2=C(C1)N(c1cc(C(F)(F)F)ccc1Cl)C(N)=C(C#N)C2c1cccnc1` (centres undefined)?
CapD inh: 0.22

How did CCOC(=O)Nc1ccc2c(CCl)cc(=O)oc2c1 do in these assays?
AID504770: -0.25; CapD inh: 16

Results for S=c1sc2ccccc2n1CSc1nc2ccccc2[nH]1 ?
AID504770: -0.85; CapD inh: 0.025

How did COCCN1CCn2c(nc3cc(Nc4nnc(C)c5ccccc45)ccc32)C1 do in these assays?
AID504770: -0.9; CapD inh: -2

Results for COCCOC(=O)C1=C(C)NC(C)=C(C(=O)OCCOC)C1c1cn(-c2ccccc2)nc1-c1cccs1 ?
CapD inh: 4.6

Results for Cc1cc(=O)n2nc(N(C)CC(=O)NCc3ccccc3)sc2n1 ?
AID504770: -0.6; CapD inh: -0.73

How did O=C(CN1CCCN(Cc2ccccc2)S1(=O)=O)NCCc1ccccc1 do in these assays?
AID504770: -0.2; CapD inh: 0.11

How did O=C(O)c1ccc(NC(=S)N2CCCCC2)cc1 do in these assays?
AID504770: -0.55

Results for S=C1NNC2(CC3CC2C2CCCC32)NN1 (centres undefined) ?
AID504770: 0.25

Results for Cc1ccccc1C(=O)Nc1ccccc1N1CCN(C)CC1 ?
AID504770: 0.25

How did C[C@H](NC(=O)c1ccc(C(C)(C)C)cc1)C(=O)N1CCOCC1 do in these assays?
AID504770: 1

How did O=S(=O)(NC1CCCCC1Nc1ccccc1Br)c1ccccc1 (centres undefined) do in these assays?
AID504770: -0.9; CapD inh: 68

Results for Cc1cc(Br)ccc1NC(=O)CCNS(=O)(=O)c1cccc2nsnc12 ?
AID504770: -2; CapD inh: 0.16
